Vaccinia mCherry – qHTS for Stage-Specific Inhibitors of Vaccinia Orthopoxvirus: mCherry Reporter Primary qHTS; Vaccinia virus mCherry reporter infection, fluorescence; about a quarter of the inactives have no number; Potency, µM (doses to about 36.5 µM), for inactives: top-dose activity change, negative = inhibition, usual class: inhibitors; 0.63% of 310,000 active; active = well fitted inhibition curve with a large enough effect; inconclusive = small, poorly fitted or top-dose-only effect; inactive = no such curve, though single readings can be large or run the other way; tested in A549 cells; further: nearly all actives have a fitted effect of over 35% in size; inactives centre near -10
Vaccinia Venus – qHTS for Stage-Specific Inhibitors of Vaccinia Orthopoxvirus: Venus Reporter Primary qHTS | Vaccinia virus Venus reporter expression, fluorescence | Potency, µM (doses to about 36.5 µM), for the others: top-dose activity change, negative = inhibition, actives largely listed as inhibitors | 0.46% of 330,000 active; active means well fitted inhibition curve with a large enough effect; inconclusive means small, poorly fitted or top-dose-only effect; inactive means no such curve, though single readings can be large or run the other way; tested in A549 cells; further: nearly all actives have a fitted effect of over 30% in size; inactives centre near -10
Active calls of the source: *; i = inactive; ? = inconclusive; · = no result given; & = joins results of further samples; [ ] = another dose, or the depositor's remark. On the % scale 0 is the no-effect control and ±100 the full control effect; potency means the concentration at half of the fitted maximal effect.

SMILES	Vaccinia mCherry	Vaccinia Venus
Cc1cccn2c(=O)c3cc(C(=O)NCC4CCCO4)c(=N)n(C4CCCC4)c3nc12 (stereo not drawn)	-10%	-9%
CCC(C)(C(=O)NC1CCCCC1)N(Cc1ccco1)C(=O)Cc1cccs1 (stereo not drawn)	-17%	-11%
CCN(c1ccc(C)c(C)c1)S(=O)(=O)c1c(C)[nH]c(=O)[nH]c1=O	-3%	-7%
Cn1c(SCC(=O)N2c3ccccc3Sc3ccccc32)nnc1-c1ccco1	·	-1%
O=C(CSc1nnnn1-c1ccccc1)NCCCN1CCCC1=O	-2%	7%
CCN(C(=O)CSc1nnnn1-c1ccccc1OC)C1CCS(=O)(=O)C1 (stereo not drawn)	i	-12%
Cc1ccc(C2N(c3ccc(Cl)cc3)C(=O)N3CCCN23)cc1 (stereo not drawn)	-7%	-10%
CN(c1ccc(Cl)cc1)c1cc2c(c3c1ccn3C)C1CCC2C1 (stereo not drawn)	2%	0%
CS(=O)(=O)N(CC(=O)N1CCCCCC1)Cc1ccc(Cl)cc1	-7%	-6%
COc1ccc(N2C(=O)/C(=C/c3ccco3)C(=O)NC2=S)cc1	i	-9%
O=C(CSc1nnnn1-c1ccccc1)Nc1nsc(-c2ccccc2)n1	i	-4%
O=c1[nH]cc(-c2ccccc2)c(=O)[nH]1	-4%	-12%
Cc1c(NS(=O)(=O)c2ccc(Cl)cc2)c(=O)n(-c2ccccc2)n1C	9%	1%
O=C(Oc1ccc(-c2cnc3ccccc3n2)cc1)c1cc([N+](=O)[O-])ccc1Cl	·	4%
COc1ccc(S(=O)(=O)NCC(c2ccco2)N2CCN(c3ccc(F)cc3)CC2)cc1 (stereo not drawn)	-14%	-16%
COc1ccccc1/C=N/NC(=O)NC12CC3CC(CC(C3)C1)C2	i	-8%
COc1ccc(-c2nc(CN3CCN(c4ccccc4OC)CC3)c(C)o2)cc1	-29%	-29%
CC(=O)Nc1ccc(C(=O)N2CCOCC2c2cc(C(=O)NCc3ccccc3)no2)cc1 (stereo not drawn)	-7%	5%
CS(=O)(=O)c1cccc(C(=O)Nc2ccc(-c3nc4ccccc4[nH]3)cc2)c1	?	?
O=C(Cn1c(=O)oc2cc(S(=O)(=O)N3CCCC3)ccc21)Nc1ccc(C(F)(F)F)cc1	?	3%
Cc1ccccc1Nc1cc(C(=O)NCc2cccs2)c2ccccc2n1	-14%	-1%
O=S(=O)(/C=C/c1ccccc1)N1CCN(c2ccccc2)CC1	i	-9%
Cc1nn(C(=O)Cn2ccc([N+](=O)[O-])n2)c(C)c1Br	i	-4%
O=C(O)CNC(=O)c1nc(-c2ccccc2)n(-c2ccccc2)n1	-12%	3%
COc1cccc(NC2=C(NCCO)C(=O)c3ccccc3C2=O)c1	?	-2%
N#CC1C(=O)NC(=O)C(C#N)C12CCCCC2 (stereo not drawn)	-3%	4%
CCCc1cc(=O)oc2cc(OCC(=O)Nc3ccccn3)ccc12	-11%	-22%
O=C(O)c1ccc2ncsc2c1	-5%	-9%
Cc1cccc(/C(N)=N/OC(=O)c2ccc(Cl)cc2Cl)c1	-23%	-6%
COc1cccc2oc(-c3ccco3)cc(=O)c12	i	-5%

4 of the compounds above, field by field:
O=C(Cn1c(=O)oc2cc(S(=O)(=O)N3CCCC3)ccc21)Nc1ccc(C(F)(F)F)cc1
  Vaccinia mCherry: ?
  Vaccinia Venus: 3%
Cc1ccccc1Nc1cc(C(=O)NCc2cccs2)c2ccccc2n1
  Vaccinia mCherry: -14%
  Vaccinia Venus: -1%
O=S(=O)(/C=C/c1ccccc1)N1CCN(c2ccccc2)CC1
  Vaccinia mCherry: i
  Vaccinia Venus: -9%
Cc1nn(C(=O)Cn2ccc([N+](=O)[O-])n2)c(C)c1Br
  Vaccinia mCherry: i
  Vaccinia Venus: -4%

(continued)
SMILES	Vaccinia mCherry	Vaccinia Venus
CC(=O)C[C@H]1c2cc(C(F)(F)F)ccc2S(=O)(=O)N1c1ccccc1	-2%&-4%	-26%&-22%
CCCCNC(=O)C1(C)CCCCN1C(=O)c1oc2ccccc2c1C (stereo not drawn)	25%	-12%
O=C(CCCN1C(=O)c2ccccc2C1=O)Nc1nccs1	·	12%
O=C1CC(c2ccco2)CC(O)=C1C=NCCN1CCN(C(=O)Nc2ccc(Cl)cc2)CC1 (stereo not drawn)	-21%	-16%
COc1ccc(CCNC(=O)c2cc(-c3ccc(C)cc3)nc3n[nH]c(-c4ccccc4)c23)cc1OC	-5%	-12%
Cc1cccc(C)c1NC(=O)COc1ccc2c(C)c(Cc3ccccc3)c(=O)oc2c1	-16%	-10%
CCOc1ccc2ccccc2c1/C=N\NC(=O)OC	-18%	-13%
Cc1cccc(NC(=O)CC2SC(=O)N(c3ccccc3)C2=O)c1 (stereo not drawn)	-20%	3%
Cc1ccc(-c2cc(C(=O)O)n(Cc3ccccc3)n2)cc1	-5%	-7%
CC(NC(=O)Cn1cc(C(=O)C2CC2)c2ccccc21)c1ccccc1 (stereo not drawn)	i	-10%
O=C(O)[C@H](CSCc1ccccc1)NS(=O)(=O)c1ccc(F)cc1	-11%	-5%
COc1ccc(NS(=O)(=O)c2cccc3cccnc23)cc1Cl	-21%	-19%
CC(C)(C)C(c1nc2ccccc2[nH]1)n1c(-c2ccsc2)nc2ccccc21 (stereo not drawn)	?	0%
CC(C)C(=O)Nc1ccc(C(=O)N/N=C/C2CC3C=CC2C3)cc1 (stereo not drawn)	-4%	-18%
CC(=O)c1cccc(NC(=S)Nc2ccn(Cc3cccc4ccccc34)n2)c1	-12%	-28%
Cc1cc(NC(=O)Cc2ccc(Br)cc2)no1	-15%	-14%
CN(CC(=O)Nc1ccc(Cl)c(S(=O)(=O)N(C)C)c1)Cc1ccccc1	-19%	-2%
COC(=O)[C@@]1(Cc2ccc(OC)cc2)[C@H]2c3cc(C(=O)N4CCCC4)n(Cc4ccccn4)c3C[C@H]2CN1C(=O)c1ccccc1	25%	8%
COc1ccc(-c2c(C)nn3c(Cl)c(C)c(C)nc23)cc1	-23%	-9%
CCn1ccnc1[C@@H]1C[C@H]2CN(Cc3cccc(Cl)c3)C(=O)[C@]23CCCN13	-11%	-3%
Cc1ccc(-n2nnc3c(=O)n(Cc4ccccc4C)cnc32)cc1	i	-15%
COc1ccc(NC(=O)CSc2nnc(-c3nnn(-c4ccc(F)cc4)c3C)o2)cc1	4%	2%
O=C(Cc1ccc(F)cc1)Nc1cccc(-c2ccc3nncn3n2)c1	4%	-13%
Cc1ccc(-n2c3c(cc(C(=O)NCCCN4CCOCC4)c2=O)C(=O)CC(C)(C)C3)cc1	-7%	-6%
CCC(Sc1nc2sc(C(=O)OC)c(C)c2c(=O)n1N)C(=O)NCC1CCCO1 (stereo not drawn)	-1%	-8%
COc1ccc(NC(=O)c2cc(NC(=O)C3CCCCC3C(=O)O)ccc2N2CCOCC2)cc1 (stereo not drawn)	-16%	-11%
COc1ccc(N2CCN(C(=O)Nc3ccccc3Cl)CC2)cc1	-28%&-11%	-4%&-6%
CCOC(=O)N1CCN(C(=O)CSc2nc3c(cnn3-c3ccc(Cl)cc3)c(=O)[nH]2)CC1	-26%	-12%
CCc1ccccc1Nc1nc(N)nc(COC(=O)CCC(=O)c2ccc(F)cc2)n1	-12%	5%
O=C(CSc1ncn[nH]1)Nc1ccc(Br)cc1F	-21%	-6%
COc1ccc(N=C2C=CC(=O)O2)cc1	i	-2%
CCOC(=O)c1csc(NC(=O)C(C)(C)C)n1	-19%	-7%
Cc1c(C(=O)c2ccccc2)oc2ccc3ccccc3c12	-8%	5%
Cc1ccc(Nc2nc3nonc3[nH]c2=O)cc1Cl	-8%	-18%
Clc1cnc(N/N=C/c2ccncc2)c(Cl)c1	-23%	10%
CCc1ccc(NC(=O)CN2C(=O)C3(SCC(=O)N3c3ccccc3)c3ccccc32)cc1 (stereo not drawn)	-24%	-22%
CC(=O)c1ccc(N2CCN(c3ncnc4onc(-c5ccc(Cl)cc5)c34)CC2)cc1	-2%	4%
CCOC(=O)c1csc(NC(=O)c2ccc(S(=O)(=O)N3CCCC3)cc2)n1	-14%	-9%
COc1cc2c(cc1OC)C(COc1ccc3c(C)cc(=O)oc3c1)N(C(=O)c1ccc(C)c(C)c1)CC2 (stereo not drawn)	-14%	-21%
O=C(COC(=O)CCNS(=O)(=O)c1ccccc1F)Nc1nnc(-c2ccccc2)o1	-13%	1%
CCC1([N+](=O)[O-])COP(N)(=O)OC1 (stereo not drawn)	-11%	-6%
N#CCCN1CCCN(CCC#N)CCN(CCC#N)CCCN(CCC#N)CC1	i	-1%
COc1ccccc1NCC(=O)NN=C1CCS(=O)(=O)c2ccc(F)cc21	i	-8%
CNc1[nH]ncc1[N+](=O)[O-]	i	0%
COc1ccc2[nH]cc(CCNC(=O)C3CCCCC3)c2c1	-8%	-18%
O=C(NCc1ccccc1)c1cccc(NC(=O)C2CCC2)c1	8%	-13%
COC(=O)c1ccc(Cn2c(C)c(C(=O)NCc3cccc(C(F)(F)F)c3)sc2=O)o1	i	0%
C=CCOC(=O)C1=C[C@@H](c2ccc(Br)cc2)[C@H](CCCO)[C@@H](OCC)O1	-22%	-7%
COc1ccc(C(=O)N2CCN(Cc3cn[nH]c3-c3ccc(OC)cc3F)CC2)cc1	-3%	-16%
CCCCN(C)CCNC(=O)c1nn(-c2ccc(OC)c(Cl)c2)c(=O)c2c1c1ccccc1n2C	?	-30%
Cc1nnc(SCC(=O)Nc2nccs2)[nH]c1=O	-13%	-2%
Cc1ccc2nc(N3CCN(Cc4nnnn4Cc4ccccc4)CC3)c(C#N)cc2c1	-7%	-22%
O=S(=O)(Nc1ccccc1)C1CCCCC1	-23%	-9%
Cc1cccc(N(CC(O)CN(C)C)S(=O)(=O)c2ccccc2)c1 (stereo not drawn)	-22%	?
Cc1ccc(NP(=O)(Oc2ccccc2)Oc2ccccc2)cc1	-17%	-19%
CN1C(C(=O)NCc2cccc(C(F)(F)F)c2)CC2Cn3c(nc4ccccc43)C21 (stereo not drawn)	1%	-17%
CCOC(=O)c1c(NC(=O)c2cc3nc(-c4ccc(Br)cc4)cc(C(F)(F)F)n3n2)sc(C(C)=O)c1C	-3%[7.34 µM]	-14%[7.34 µM]
CC[C@H](CO)Nc1nc(NCc2ccccc2)c2ncn(C(C)C)c2n1	?	?
CCc1ccccc1NC(=O)CNC(=O)CNC(=O)C1CCCCC1	-17%	-18%
O=C1CC(c2ccccc2C(F)(F)F)c2c(c3ccccc3[nH]c2=O)O1 (stereo not drawn)	-21%	-19%

Other compounds
SMILES	Vaccinia mCherry	Vaccinia Venus
CCOc1cc(Cl)c(S(=O)(=O)NCc2cccnc2)cc1Cl	-17%	-10%
CC(=O)c1ccc(NC(=O)CSc2nnc3c(n2)[nH]c2ccccc23)cc1	-7%	-9%
CN(CC(=O)Nc1ccc(S(=O)(=O)N2CCCC2)cc1)Cc1cccc(Cl)c1Cl	-29%	-23%
CCOC(=O)c1c(-c2ccccc2)csc1NC(=O)CSc1ccccc1	-11%	0%
Cc1ccc(NC(=O)COC(=O)CNC(=O)c2ccc(Cl)cc2Cl)cc1S(=O)(=O)N1CCOCC1	-18%	-10%
Cc1nc(SCC(=O)c2ccccc2)c(C#N)c(-c2ccco2)c1C(=O)NCc1ccco1	·	-18%
COC(=O)c1cc(NC(=O)c2oc(=O)c3ccccc3c2-c2ccccc2)cc(C(=O)OC)c1	0%	-1%
CCOc1ccc2[nH]c(=O)c(CN(CC3CCCN3CC)C(=O)NCc3ccccc3)cc2c1 (stereo not drawn)	·	-15%
COc1ccc(C(=O)NCc2c(C)oc(C)c2C(=O)O)cc1	i	-4%
COCCNC(=O)c1ccc2c(=O)n(CCOC)c(=O)[nH]c2c1	-5%	-3%
O=C(O)C1CC(=O)N(C2CCCCC2)C1c1ccccc1 (stereo not drawn)	1%	6%
Cn1c(=O)n(C)c2cc(S(=O)(=O)O)ccc21	·	-21%
CCN(Cc1ccccc1)S(=O)(=O)c1cc2[nH]c(=O)c(=O)[nH]c2cc1C	-9%	-4%
COCCNc1nc(N)c([N+](=O)[O-])c(NCCO)n1	-12%	-7%
CCOC(=O)N1CCN(C(=O)Cn2ccc3c(OC)cccc3c2=O)CC1	-16%	-27%

Some of these compounds in order of SMILES length, rising.
SMILES	Vaccinia mCherry	Vaccinia Venus
COCCNc1nc(N)c([N+](=O)[O-])c(NCCO)n1	-12%	-7%
CCOc1cc(Cl)c(S(=O)(=O)NCc2cccnc2)cc1Cl	-17%	-10%
COCCNC(=O)c1ccc2c(=O)n(CCOC)c(=O)[nH]c2c1	-5%	-3%
CCOC(=O)c1c(-c2ccccc2)csc1NC(=O)CSc1ccccc1	-11%	0%
CCOC(=O)N1CCN(C(=O)Cn2ccc3c(OC)cccc3c2=O)CC1	-16%	-27%
Cc1nc(SCC(=O)c2ccccc2)c(C#N)c(-c2ccco2)c1C(=O)NCc1ccco1	·	-18%

The listing continues.
SMILES	Vaccinia mCherry	Vaccinia Venus
O=C(CSc1nc2ccccc2nc1Cc1ccc(Cl)cc1)N1CCN(c2ccccc2F)CC1	-17%	-10%
Cc1cc(Cl)ccc1NC(=O)C1CCCN(c2nnc(C)c3c(C)n(-c4ccccc4)nc23)C1 (stereo not drawn)	-6%	-9%
CCOC(=O)c1ccccc1NC(=O)CN(c1ccccc1OC)S(=O)(=O)c1ccc(C)cc1	i	-7%
Cc1cc(C)n(Cc2ccc(C(=O)O)cc2)n1	i	-15%
Cc1cc2cc(CCNS(C)(=O)=O)c(=O)[nH]c2cc1C	·	-2%
CP(=O)(COC(=O)c1ccccc1)COC(=O)c1ccccc1	·	6%

Assay outcomes deposited in PubChem BioAssay by National Center for Advancing Translational Sciences (NCATS).
